Compound activity from PubChem.
Calb FLC: C. albicans growth inhibition with fluconazole, primary screen, CaCi-2 strain, Alamar Blue fluorescence | growth inhibition, % (concentration not given with the values) | C. albicans CaCi-2 (fluconazole-resistant clinical isolate) + fluconazole, 48 h | 0.57% of 300,000 active;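 active = most replicates above 75%; inconclusive = exactly half above 75%; inactive = most below 75%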;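 note: all wells also contain fluconazole at 8 µg/ml as a sub-toxic cotreatment; 0% = median of DMSO wells and 100% = median of geldanamycin control wells; wells of about 8 µL received 7.5 nL stock; the first replicate is given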
T cruzi inh: inhibitors of intracellular T. cruzi growth, primary screen, luminescence, NIH3T3 host cells; 1.4% of 300,000 active; T. cruzi beta-gal in NIH3T3, 90 h; inhibition, % (concentration not given with the values);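 active = mean inhibition across valid replicates above about 55%, limit read from the data; inconclusive = mean below that limit but half or more replicates reach it; inactive = mean below it, under half of replicates reach it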;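 note: signal also drops with host cell toxicity which is not excluded here; 0% = plate median of DMSO wells and 100% = zero luminescence signal; higher percent means less beta-gal luminescence so fewer parasites; stock transfer was 50 nL into about 50 µL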
Beta apoptosis: inhibitors of cytokine-induced beta cell apoptosis, primary screen, luminescence; 0.8% of 300,000 active; protection from apoptosis, % (test concentration not listed); INS-1E cytokine-induced death, ATP luminescence, 48 h; percent of positive-control rescue, neutral wells zero; AID 435005, 2010;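 active = all replicates at 75% or more, or half of them and the mean; inconclusive = half reach 75% but not the mean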;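 note: 0% = cytokine-treated negative control wells and 100% = positive control rescue; higher means more ATP so stronger rescue from cytokine killing; wells of about 40 µL received 100 nL stock; the first replicate is given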
UCH37 inh: inhibitors of human UCH37 deubiquitinase, primary screen, biochemical, Ub-AMC cleavage, fluorescence; AID 588478, 2011; 0.33% of 330,000 active; purified proteasome/UCH37; Ubiquitin carboxyl-terminal hydrolase isozyme L5 (Homo sapiens), Q9Y5K5; inhibition, % (concentration not given with the values);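 active = mean of two replicates above 20%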;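 note: 0% = compound-free wells with enzyme and 100% = wells lacking proteasome; stock transfer was 100 nL into about 20 µL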
Target sequence (Q9Y5K5 whole entry, looked up): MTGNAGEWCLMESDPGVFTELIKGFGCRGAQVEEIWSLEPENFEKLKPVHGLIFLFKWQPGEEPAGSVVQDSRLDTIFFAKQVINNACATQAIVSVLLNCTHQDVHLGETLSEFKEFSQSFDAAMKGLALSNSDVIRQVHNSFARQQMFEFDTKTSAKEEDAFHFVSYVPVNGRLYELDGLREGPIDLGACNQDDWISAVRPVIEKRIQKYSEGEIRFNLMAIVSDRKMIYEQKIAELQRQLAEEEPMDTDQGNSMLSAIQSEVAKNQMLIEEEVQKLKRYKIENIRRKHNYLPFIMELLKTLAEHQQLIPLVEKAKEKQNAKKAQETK
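system = Proteasome-associated human UCH37 deubiquitinase | amount = 0.15 nM proteasome as dispensed | medium = pH 7.4 Tris-HCl (50 mM) with ovalbumin, ATP-MgCl2, DTT | incubation = 30 min preincubation with enzyme, 25 min cleavage at room temperature | detection = AMC fluorescence 355/460 nm | read-out basis = percent inhibition | controls = no-proteasome and no-compound wells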
RanGTP-Impb inh: inhibitors of RanGTP-importin-beta interaction, primary screen, biochemical, FRET, CFP-Ran, YFP-importin-beta, homogeneous; Ran GTPase (GTP-bound) - importin-beta complex; cell-free CFP-Ran/YFP-importin-beta FRET ratio; inhibition, % (concentration not given with the values); 1.1% of 300,000 active;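 active = most replicates above 15%; inconclusive = exactly half above 15%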;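 note: 0% = DMSO wells and 100% = Ran loaded with GDP instead of GTP; wells of about 40 µL received 100 nL stock; the first replicate is given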
Beta2AR agonist: beta2AR agonists driving receptor internalization, primary screen, cell-based, FAP fluorogen, flow cytometry; 0.43% of 340,000 active; Beta-2 adrenergic receptor (Homo sapiens), P07550; AID 504454, 2011; Am2.2-beta2AR cells; reference of the scale not given here; response, % (concentration not given with the values);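 active = response above a set limit, near 3 SD of response in nonfluorescent compounds, cut at about 42% in these data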;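 note: stock transfer was 100 nL into about 11 µL; a reference agonist was the positive control; negative values mostly stem from fluorescent compounds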
Target sequence (P07550 whole entry, looked up): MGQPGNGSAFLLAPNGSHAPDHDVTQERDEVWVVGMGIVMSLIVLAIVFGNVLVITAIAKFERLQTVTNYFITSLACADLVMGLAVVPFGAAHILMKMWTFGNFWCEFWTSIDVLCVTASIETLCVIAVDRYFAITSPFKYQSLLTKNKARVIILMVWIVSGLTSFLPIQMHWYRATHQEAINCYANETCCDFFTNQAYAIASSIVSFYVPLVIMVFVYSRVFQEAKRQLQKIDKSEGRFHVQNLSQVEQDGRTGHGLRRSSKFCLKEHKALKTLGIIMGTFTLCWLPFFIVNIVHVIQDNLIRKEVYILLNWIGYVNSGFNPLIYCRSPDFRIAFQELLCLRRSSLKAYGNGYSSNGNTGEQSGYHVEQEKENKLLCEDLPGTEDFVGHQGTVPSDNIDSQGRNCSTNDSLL
Bfl-1 A1 inh: caspase 3/7 activation in MEF A1-2A-BIM cells, primary screen, A1 inhibitor project, cell-based, luminescence, HTS; AID 2462, 2010; 0.066% of 330,000 active; caspase activation, % (no concentration beside the values); Caspase-Glo 3/7 luminescence, 3 h; percent of clofoctol response, vehicle zero;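 active = over half of replicate activation scores above 10%, or exactly half above 10 with the replicate mean above 10; inconclusive = replicate mean below 10 yet half the replicates above 10; inactive = over half of replicates below 10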;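 note: wells of about 30 µL received 50 nL stock; many hits fall short of the cut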
LANA-H2A inh: blockers of LANA interaction with H2A/H2B – biochemical, FP readout, HTS, primary screen. cell-free LANA-H2A/H2B peptide, fluorescence polarization. inhibition, % (concentration not given with the values). 0.6% of 320,000 active. AID 2629, 2010; in the data active = inhibition mostly above about 10%, no sharp cut-off; inactive = mostly below about 6.7%;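 note: stock transfer was 7.5 nL into about 10 µL; 0% = median of vehicle wells and 100% = median of positive control wells; one replicate is shown; the record names a cut of 25% in any replicate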
An asterisk follows results filed as active; ? = inconclusive; nt = not tested or not shown.

SMILES	Calb FLC	T cruzi inh	Beta apoptosis	UCH37 inh	RanGTP-Impb inh	Beta2AR agonist	Bfl-1 A1 inh	LANA-H2A inh
Cc1ccc(S(=O)(=O)ON2C(=O)c3ccccc3C2=O)c(C)c1	nt	nt	10	-10	nt	-3	2.7	0.1
c1ccc2c(NCCCN3CCOCC3)c3ccccc3nc2c1	nt	nt	104*	-8.2	nt	nt	0.0	-3.4
CC(C)(C)/C=N/NC(=O)C1CC1	-4	-20	7	nt	4.1	-13	0.2	7.8
Cc1cc(C)n(-c2nc(-c3cccc(Cl)c3)cs2)n1	3	nt	6	0.4	4.0	0	0.3	0.6
CCOc1ccc(N(CC(=O)NC2CCCC2)C(=O)Cn2nnc(-c3ccc(C)o3)n2)cc1	-12	9	nt	4.0	0.6	-3	nt	nt
COCCn1cnnc1SCC(=O)Nc1cccc(S(=O)(=O)N2CCCCC2)c1	nt	nt	-1	2.5	nt	0	1.1	6.7
Cn1cc(C(=O)c2ccc(F)cc2)cc1-c1nc2ccccc2n1C	-15	-2	-1	0.9	-2.5	-11	0.5	-0.3
Cc1ccc(S(=O)(=O)N2[C@@H](c3ccccc3F)C(C(=O)O)=CC[C@H]2c2ccc(Cl)c(Cl)c2)cc1	nt	nt	-8	1.7	nt	-9	0.6	0.6
Cc1ccc(/C=N/NC(=O)c2cccnc2)s1	3	-14	5	nt	-1.0	-8	-0.1	-5.8
Nc1nonc1C(=O)NCCNCc1ccccc1	-5	-4	1	2.3	-0.1	3	-1.3	-2.3
CC(C)Oc1cccc(C(=O)N/N=C/c2coc3ccccc3c2=O)c1	-2	nt	-8	nt	nt	1	0.0	2.3
O=C(c1cccc(Cl)c1)C1CCCN(C(=O)c2ccc3c(c2)OCO3)C1 (stereo not given)	1	21	-3	5.7	-0.6	-3	0.2	5.7
O=C(N/N=C/c1ccc(O)cc1O)C(=O)N/N=C/c1ccc(O)cc1O	23	-13	2	nt	3.0	3	-2.2	1.8
CC(C)OC(=O)c1ccc(N2CCN(c3ccccc3F)CC2)nc1	-10	21	9	1.2	3.0	8	0.9	5.9
CCOc1ccc(S(=O)(=O)NCC2CCCO2)cc1NC(=O)c1ccccc1F (stereo not given)	-6	14	-4	-37	-1.5	1	0.2	5.7
O=C(CSc1nc2scc(-c3ccccc3)c2c(=O)[nH]1)NC1CCCCC1	34	-27	6	3.5	-0.1	nt	0.1	-4.1
CC(NC(=O)c1ccccc1F)C12CC3CC(CC(C3)C1)C2 (stereo not given)	-7	8	2	1.9	0.4	1	0.7	-2.8
CCC(C)N(C(=O)COC(=O)c1ccc(=O)n(Cc2ccccc2)n1)C1CCS(=O)(=O)C1 (stereo not given)	-2	2	2	0.0	9.5	1	-0.8	-2.6
COc1cc([C@H]2OC[C@H]3[C@@H]2CO[C@H]3c2ccc(O)c(OC)c2)ccc1O	nt	nt	-6	0.3	nt	4	0.1	1.2
NC(=O)CC(NC(=O)Cc1cccc2ccccc12)c1ccc(N2CCC(Cc3ccccc3)CC2)c([N+](=O)[O-])c1 (stereo not given)	-6	-16	-13	3.0	-1.4	1	0.4	3.3

Exported with values under each structure: 6 of the compounds above.
The line under a structure holds: Calb FLC | T cruzi inh | Beta apoptosis | UCH37 inh | RanGTP-Impb inh | Beta2AR agonist | Bfl-1 A1 inh | LANA-H2A inh
Nc1nonc1C(=O)NCCNCc1ccccc1
→ -5 | -4 | 1 | 2.3 | -0.1 | 3 | -1.3 | -2.3
CC(C)Oc1cccc(C(=O)N/N=C/c2coc3ccccc3c2=O)c1
→ -2 | nt | -8 | nt | nt | 1 | 0.0 | 2.3
O=C(c1cccc(Cl)c1)C1CCCN(C(=O)c2ccc3c(c2)OCO3)C1 (stereo not given)
→ 1 | 21 | -3 | 5.7 | -0.6 | -3 | 0.2 | 5.7
O=C(N/N=C/c1ccc(O)cc1O)C(=O)N/N=C/c1ccc(O)cc1O
→ 23 | -13 | 2 | nt | 3.0 | 3 | -2.2 | 1.8
CC(C)OC(=O)c1ccc(N2CCN(c3ccccc3F)CC2)nc1
→ -10 | 21 | 9 | 1.2 | 3.0 | 8 | 0.9 | 5.9
CCOc1ccc(S(=O)(=O)NCC2CCCO2)cc1NC(=O)c1ccccc1F (stereo not given)
→ -6 | 14 | -4 | -37 | -1.5 | 1 | 0.2 | 5.7

Remaining list, next part.
SMILES	Calb FLC	T cruzi inh	Beta apoptosis	UCH37 inh	RanGTP-Impb inh	Beta2AR agonist	Bfl-1 A1 inh	LANA-H2A inh
c1cc(-n2cnnn2)ccc1NC1=NCCC1	-15	-2	0	1.5	2.0	4	0.7	-0.2
Cc1ccc(N2C(=O)c3n[nH]c(C)c3C2c2ccco2)cc1 (stereo not given)	2	-9	0	4.8	1.0	-5	0.1	-0.4
O=S(=O)(CCN1CCN(C(c2ccccc2)c2ccccc2)CC1)C(F)(F)F	-12	-23	-3	4.4	?	8	0.7	-2.2
Cc1c(CCO)c(=O)n(C)n1C(=O)c1ccc(Cl)cc1	?	2	-2	5.7	1.2	-13	-0.4	4.0
Cc1ccc(S(=O)(=O)N2CCN(C)CC2)c2nsnc12	12	6	-8	5.8	4.4	-4	0.2	2.3
CSc1nc(-c2ccccc2F)c(C#N)c(=O)n1C	14	-4	-5	5.4	-4.0	2	0.6	-2.1
COc1ccc(/C(C)=N/NC(=O)Cn2nc([N+](=O)[O-])cc2C)cc1	-37	-24	-9	nt	-0.7	-3	0.6	-7.5
COc1ccc(NC(=O)N(CCN2CCCC2)Cc2cc3cc(OC)c(OC)cc3[nH]c2=O)cc1	-2	-15	-7	-2.0	-4.8	3	0.4	3.7
CCNCC(O)COCC(O)CNCC (stereo not given)	1	3	0	1.1	?	2	-0.1	0.7
O=C(CC1C(=O)NCCN1Cc1cccc(C(F)(F)F)c1)NCCCOc1cccnc1 (stereo not given)	6	20	-7	4.1	1.0	-2	-0.1	4.6
COc1ccccc1C(=O)Oc1ccccc1C(=O)Nc1ccccc1	53	-1	-4	0.2	6.1	-5	-2.3	1.4
O=c1[nH]c2cc(Br)cnc2nc1/C=C(\O)c1ccc(F)cc1	54	17	1	nt	18*	-2	-0.4	-2.2
O=C(/C=C/c1cccc([N+](=O)[O-])c1)N1CCOCC1	-2	-25	-7	2.3	3.5	2	-0.4	-4.3
Cc1cnc(NC(=O)Cc2ccccc2F)s1	-10	-2	-7	5.5	-1.4	3	-0.9	3.2
Cc1cc2nnc(SCC(=O)NCC(c3ccccc3)N(C)C)n2c2ccccc12 (stereo not given)	-4	12	-3	3.7	0.7	-4	0.0	0.8
COc1cc(OC)c(NC(=O)C2CCN(S(=O)(=O)c3ccc4c(c3)CC(C)N4C(C)=O)CC2)cc1Cl (stereo not given)	5	8	45	3.7	-1.0	6	-0.7	-5.1
CCCCCCn1c(NCC)nc2c1c(=O)n(C)c(=O)n2C	-5	7	47	-0.4	-1.2	-12	0.3	2.3
CCCN(CC1CC1)C(=S)Nc1ccc(Oc2ccccc2)cc1	-6	-33	17	5.1	-4.1	-8	1.0	-9.9
O=C(NCC(=O)N(Cc1ccco1)C(C(=O)NC1CCCC1)c1cccnc1)c1ccco1 (stereo not given)	-10	0	-5	1.1	-4.6	3	?	-2.7
Cc1noc(C)c1C(=O)N(CC(=O)Nc1ccccc1Br)Cc1ccco1	nt	nt	1	2.8	nt	13	-0.1	-0.3
COc1cc(C(=O)N(Cc2ccc(C)o2)C2CCS(=O)(=O)C2)cc(OC)c1OC (stereo not given)	24	-2	-5	0.4	-4.2	21	0.4	-3.2
Cc1cc(C)nc(SCCc2ccncc2)n1	-1	-4	-3	-1.0	-0.2	-8	0.4	4.8
CCOC(=O)c1sc(=S)n(-c2ccccc2)c1SC	3	-4	-6	3.5	?	-2	0.6	-2.8
Cc1cc(C)nc(N(C#N)Cc2ccccc2Cl)n1	-10	10	-7	3.8	6.2	-4	-0.5	-2.2
CC(=O)Nc1ccc(S(=O)(=O)N2CCC(C(=O)O)CC2)cc1	-15	-9	-4	-1.5	?	7	0.3	1.0
O=C(Cn1c2ccc(F)cc2c2nc3n(c(=O)c21)CCS3)NC1CCCC1	5	0	1	-65	-1.5	-23	1.0	-2.1
COc1ccc(CNC(=O)/C=C/c2ccc(OCCCF)cc2)cc1OC	13	6	2	0.9	-3.3	-9	3.2	-2.7
CC(C)=CCC[C@](C)(OC1OC(COC2OCC(O)C(O)C2O)C(O)C(O)C1O)C1CC[C@]2(C)C1C(O)CC1[C@@]3(C)CCC(O[C@@H]4O[C@H](CO)C(O)C(O)C4O[C@@H]4OC(CO)C(O)C(O)C4O)C(C)(C)C3CC[C@]12C (stereo not given in full)	nt	nt	4	-4.5	nt	-2	0.8	2.9
Cc1nc(-c2ccc([N+](=O)[O-])cc2)c(-c2ccccc2)o1	-3	5	-3	-12	0.8	4	-1.8	-3.1
O/N=C1\CCC\C1=C/c1ccco1	-1	-3	nt	nt	?	-2	-0.4	-2.1
CCCOc1ccc(C(=O)Nc2ccc(S(=O)(=O)N3C[C@@H]4C[C@@H](C3)c3cccc(=O)n3C4)cc2)cc1	nt	nt	-8	-2.0	nt	7	0.7	-1.9
CCn1cc(Br)c(C(=O)NN)n1	-1	-14	-2	1.0	-1.3	-6	-0.4	0.6
COc1ccccc1N1CCN(CCNC(=O)Nc2cccc(C)c2C)CC1	-23	34	2	5.3	3.8	8	0.2	-2.6
Cc1ccc(OCCn2ccnc2)c([N+](=O)[O-])c1	-18	-2	2	5.6	-2.4	-6	0.2	7.1
COc1ccc(C(=O)N2CCCC(N3CCN(c4ccccc4OC)CC3)C2)c(OC)n1 (stereo not given)	-9	-15	10	6.2	1.9	2	0.5	-7.7
COc1cccc(CNC(=O)COc2cccc3c2OC(C)(C)C3)c1	7	-3	-6	1.1	-1.6	1	-1.0	-3.9
COCCN(C(=O)c1csnn1)C(C(=O)NC(C)(C)C)c1cccc(OC)c1 (stereo not given)	2	4	-2	1.4	-1.5	7	-0.3	1.4
COc1ccc(C(=O)c2no[n+]([O-])c2C(=O)c2ccc(OC)cc2)cc1	8	-15	-13	7.6	3.3	44*	0.5	1.9
O=c1cc(-c2c(F)c(F)c(F)c(F)c2F)oc2c(F)c(F)c(F)c(F)c12	65	61*	107*	nt	1.5	nt	2.2	-2.4
O=C(Cc1ccc(Cl)cc1Cl)OCC(=O)N1CCN(C(=O)c2ccco2)CC1	-6	7	-9	0.3	3.5	-6	-0.8	-1.1
O=C(c1ccco1)N1CCN(C(c2cccs2)c2sc3ncnn3c2O)CC1 (stereo not given)	-4	-4	-1	3.4	-2.5	1	-0.7	4.9
